High-throughput results deposited in PubChem BioAssay by ICCB-Longwood Screening Facility, Harvard Medical School.
MgrA-DNA mod: modulators of Staphylococcus aureus MgrA DNA binding; fluorescence polarization; inhibition, %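 (about 10 µg/mL by stock and volumes)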; 84,000 compounds, 0.13% hits; AID 602314;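 active = above 50% in either of two replicates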;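 also: 0% = protein plus DNA without compound and 100% = DNA alone without protein; higher means less MgrA bound to DNA so lower polarization; one replicate is shown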
Sa helicase inh: blocks Staphylococcus aureus DNA helicase; purified S. aureus helicase, fluorescence unwinding assay; about half of the hits fall short of the stated cut; inhibition, %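 (tested at about 80 µM)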; 120,000 compounds, 0.05% hits;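 active = both duplicates at 50% or more, or one of them with a favoured structure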;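 also: 0% = mean of negative control wells and 100% = mean of positive control wells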
Numbers without * were called inactive; nt = not tested or not shown; & = joins results of further samples.

MgrA-DNA mod	Sa helicase inh	mol
-0.8	4	O=C(O)CNC(=O)C(O)(c1ccccc1)c1ccccc1
nt	-23	CCn1cc(C(=O)N2CCOCC2)c(=O)c2cc(S(=O)(=O)N(C)C)ccc21
nt	3	CC(C)N(C(=O)CSc1nc2ccccc2n1C)c1ccccc1
-0.4	nt	COc1ccc2nc(Nc3nc(-c4ccccc4)cc(=O)[nH]3)nc(C)c2c1
-1.0	2	Cc1nnc(SCC(=O)Nc2ccc(F)cc2)o1
-0.3	16	CC(=O)Nc1ccc(NC(=O)C2CCCN2S(=O)(=O)c2cccc3nsnc23)cc1 (configuration not stated)
nt	-25	O=C(CCCn1ncn2c(cc3occc32)c1=O)NC1CCCc2ccccc21 (configuration not stated)
9.2	-4	O=c1cc(O)c2sc(SCc3ccncc3)nc2[nH]1
1.2	-3	Fc1ccccc1CSC1=NCCN1
nt	15	C=CCNCC1OCc2ccccc2CO1
nt	1	O=C(O)c1ccc2c(c1)-c1nc3ccccc3n1C2=O
nt	-28	O=C(NCC(c1cccs1)N1CCOCC1)c1ccccc1C(=O)NCC(c1cccs1)N1CCOCC1 (configuration not stated)
1.8	nt	CCOC(=O)c1cc2c(=O)[nH]ccc2nc1C(F)(F)F
nt	-6	Cc1occc(=O)c1OC(=O)c1ccco1
-0.6	nt	NC(=O)CSc1ccc(C(F)(F)F)cn1
nt	19	CCCCn1cnc2cc(NCc3cc(OC)c(OC)c(OC)c3)ccc21
2.4	nt	O=C(O)c1ccc(Oc2ccc(Cl)c(F)c2)cc1
0.8	4	O=C(CSCc1ccccc1F)NCc1ccccc1
-1.6	5	Cn1c(C(=O)NCCc2ccccc2)cc(=O)n(C)c1=O
1.6	nt	COc1cc(/C=C2/SC(=S)N(CC(=O)O)C2=O)ccc1OCc1ccccc1
nt	19	CC(C)Cn1c(=O)n(C)c(=O)c2cc(C(=O)c3cc(Cl)cc(Cl)c3O)cnc21
nt	7	C=CCOC(=O)C1=C(C)N2CCSC2=C(C#N)C1c1ccco1 (configuration not stated)
0.8	9	Cc1ccc(C(=O)CSc2nnnn2C2CCCC2)cc1C
nt	2	O=C(Cn1nnc(-c2ccccc2)n1)c1ccc(S(=O)(=O)N2CCCCC2)cc1
nt	14	O=C(Nc1nc2ccccc2s1)c1n[nH]c(=O)c2ccccc12

Quoted at random: 2 compounds from above
MgrA-DNA mod	Sa helicase inh	mol
nt	3	CC(C)N(C(=O)CSc1nc2ccccc2n1C)c1ccccc1
-0.6	nt	NC(=O)CSc1ccc(C(F)(F)F)cn1

Profiles, looked up by structure. Order of values: MgrA-DNA mod | Sa helicase inh
Shown for Cc1ccc(C(=O)CSc2nnnn2C2CCCC2)cc1C : 0.8 | 9
Shown for O=C(CCCn1ncn2c(cc3occc32)c1=O)NC1CCCc2ccccc21 (configuration not stated) : nt | -25
Shown for CCn1cc(C(=O)N2CCOCC2)c(=O)c2cc(S(=O)(=O)N(C)C)ccc21 : nt | -23
Shown for COc1cc(/C=C2/SC(=S)N(CC(=O)O)C2=O)ccc1OCc1ccccc1 : 1.6 | nt
Shown for O=C(CSCc1ccccc1F)NCc1ccccc1 : 0.8 | 4

(listing goes on)
MgrA-DNA mod	Sa helicase inh	mol
nt	-10	COc1cc2c(cc1OC)CN(C(=O)CCOc1ccccc1OC)CC2
nt	18	Cc1csc(SCC(=O)c2cc(C)n(-c3ccccc3)c2C)n1
0.2	nt	FC(F)(F)c1cc(C(F)(F)F)c(Br)c(-n2cccc2)c1Br
nt	2	COc1cccc(NC(=O)N2CCC(N(C)Cc3cccc(Cl)c3)CC2)c1
1.2	-1	O=C(CN(c1ccccn1)S(=O)(=O)c1ccccc1)N=Nc1c(O)[nH]c2ccccc12
-0.8	nt	NC1=NC(=O)/C(=C\c2ccc(OCc3ccc(Cl)cc3Cl)cc2)S1
0.8	nt	COC(=O)c1sccc1OC(=O)c1ccc(Cl)cc1Cl
nt	15	O=C(CSc1nc2c(sc(=S)n2Cc2ccco2)c(=O)n1-c1ccccc1)c1ccc(O)c(O)c1
nt	-6	Cc1nc(Cc2nnc(SCC(=O)c3ccc4c(c3)CCCN4S(C)(=O)=O)o2)cs1
3.0	-9	COc1ccccc1Nc1nc(NCC2CCCO2)c2ccccc2n1 (configuration not stated)
nt	16	Nc1nsc2ccccc12
nt	-3	N#Cc1ccc(OCC(=O)N/N=C/C2CC=CCC2)cc1 (configuration not stated)
-1.5	nt	CCOC(=O)NC(=O)c1cn(C(C)C)c(=O)n(Cc2ccccc2)c1=O
nt	-12	O=c1cc(CSc2ccccc2)nc2sccn12
5.7	nt	CN1C(=O)C(=Cc2ccc(Oc3ccc([N+](=O)[O-])cc3[N+](=O)[O-])cc2)C(=O)N(C)C1=O
1.4	-10	Cc1ccc(S(=O)(=O)c2cc3cc(C(=O)Nc4ccc(C)c(C)c4)ccc3oc2=O)cc1
1.1	15	C/C(=N\NS(C)(=O)=O)c1ccc(C)cc1
nt	-13	CCn1c(C)cc(O)c(C(c2ccc(OC)cc2)N2CCN(C)CC2)c1=O (configuration not stated)
-1.2	nt	Cc1nnsc1C(=O)Nc1ccccc1N1CCCCC1
0.7	nt	O=c1c(-c2ccc(OC3O[C@H](CO)[C@@H](O)[C@H](O)[C@H]3O)cc2)coc2cc(O)cc(O)c12 (some centres not stated)
14	nt	OCCN1CCN(C(c2ccc(C(F)(F)F)cc2)c2ccc3cccnc3c2O)CC1 (configuration not stated)
-1.3	nt	Cc1nc(C(F)(F)F)ccc1C(=O)NCCNc1cccc(C(F)(F)F)n1
0.3	8	COc1cccc(CNC(=O)CCCOc2cc(=O)n(C)c3ccccc23)c1
nt	-11	CCOC(=O)C1=C(N)Oc2cc(C)n(C)c(=O)c2C1c1ccncc1 (configuration not stated)
15	3	O=C(CN1CCC(N2CCCCC2)CC1)NC(c1ccccc1)c1ccccc1

Part of the list above in order of molecular weight, rising.
MgrA-DNA mod	Sa helicase inh	mol
0.8	nt	COC(=O)c1sccc1OC(=O)c1ccc(Cl)cc1Cl
nt	-11	CCOC(=O)C1=C(N)Oc2cc(C)n(C)c(=O)c2C1c1ccncc1 (configuration not stated)
nt	18	Cc1csc(SCC(=O)c2cc(C)n(-c3ccccc3)c2C)n1
-1.3	nt	Cc1nc(C(F)(F)F)ccc1C(=O)NCCNc1cccc(C(F)(F)F)n1
1.4	-10	Cc1ccc(S(=O)(=O)c2cc3cc(C(=O)Nc4ccc(C)c(C)c4)ccc3oc2=O)cc1

Look-ups from the list.
CN1C(=O)C(=Cc2ccc(Oc3ccc([N+](=O)[O-])cc3[N+](=O)[O-])cc2)C(=O)N(C)C1=O in MgrA-DNA mod reads 5.7
COc1ccccc1Nc1nc(NCC2CCCO2)c2ccccc2n1 (configuration not stated) in Sa helicase inh reads -9

The listing continues:
MgrA-DNA mod	Sa helicase inh	mol
-3.5	2	CN(CC(=O)NC1CC(C)(C)NC(C)(C)C1)S(=O)(=O)c1ccc(Br)cc1
nt	-5	N#Cc1c(/N=C/c2cccs2)sc2c1CCCC2
1.6	13	CN1CCc2nc(SCC(=O)Nc3ccccc3OC(F)(F)F)c(C#N)cc2C1
nt	-19	O=C(Cn1cnc(S(=O)(=O)N2CCc3ccccc32)c1)NCc1ccccc1
2.2	4	C=CCNC(=S)NC1C2CN3CCN(C2)CC1(C)C3 (configuration not stated)
nt	12	Cc1c(C(=O)N2CCN(C3CCS(=O)(=O)C3)CC2)oc2ccc(Cl)cc12 (configuration not stated)
0.2	nt	CCOC(=O)C(C)(C)Oc1ccc(Cl)cc1
nt	7	CCC(C(=O)Nc1ccccc1OC)n1c(C(=O)OC)cc2sccc21 (configuration not stated)
nt	-1	COc1ccccc1-n1c(SCc2ccc(F)cc2)nc2c(c1=O)SCC2
nt	10	CCc1ccccc1N(CC)C(=O)c1coc(=O)c2ccccc12
0.1	nt	O=C(CCN1C(=O)/C(=C\c2cccs2)SC1=S)Nc1cccc(F)c1
nt	6	CCOc1ccc(NC(=O)CSc2nnc3ccccn23)cc1
-1.6	6&5	Cc1cc(=O)[nH]c2c1c(C)nn2-c1ccccc1
-0.7	nt	COc1ccc(C2Nc3ccccc3C(=O)N2c2ccc(F)cc2)cc1CSc1nc2ccccc2s1 (configuration not stated)
-1.0	nt	CCSc1ccc(/C(N)=N/O)cn1
nt	-17	Cc1ccc(OCCn2cccc2/C=C2/C(=N)N3C(c4ccccc4)=CSC3=NC2=O)cc1
nt	-17	O=C(Cc1ccc2c(c1)OCCO2)Nc1ccccc1C(F)(F)F
nt	-6	O=C(N/N=C1/C(=O)c2cccc3cccc1c23)c1ccc2c(c1)OCO2
-0.6	4	O=C1Cn2nnc(C(=O)c3ccccc3)c2C2(CCCCC2)O1
-0.6	9	Cc1c(OCc2ccc(F)cc2)ccc2c3c(c(=O)oc12)CCCC3
4.2	5	O=C1NCCCC1C(=O)N1CCCCC1 (configuration not stated)
0.2	-4	CC(Oc1ccc(Cl)cc1Cl)C(=O)Nc1nncs1 (configuration not stated)
1.6	7	CC(Cc1c[nH]c2ccccc12)NC(=O)c1ccco1 (configuration not stated)
0.4	18	O=S1(=O)CCC(N=Cc2ccc(-c3ccc(Br)cc3)o2)C1 (configuration not stated)
nt	2	Cn1/c(=N\NC(=O)C2CCCCC2)sc2ccccc21
nt	-7	CC(C)N(Cc1ccccc1)S(=O)(=O)c1ccc(C(=O)Nc2nnc(-c3cccs3)o2)cc1
2.5	-12	CC1(C)C2CCC1(CS(=O)(=O)NCc1ccc(Cl)cc1Cl)C(=O)C2 (configuration not stated)
-0.1	nt	COc1ccc2c(c1)CCCC2(C#N)CC#N (configuration not stated)
nt	15	CCOC(=O)C(C)Sc1nnc(NC(=O)c2ccc3ccccc3c2)s1 (configuration not stated)
1.6	3	Cc1onc(-c2c(F)cccc2Cl)c1C(=O)NC(=S)NC1CCSC1=O (configuration not stated)
0.3	nt	O=C(Nc1ccccc1)OC1CCSC1 (configuration not stated)
2.7	0	O=C(O)C1CCN(C(=O)c2ccc(-c3ccccc3)cc2)CC1
nt	-2	C=CCn1c(SC(C)C(=O)NC(N)=O)nnc1-c1occc1C (configuration not stated)
nt	5	Cc1cc(/C=C2/C(=N)N3C(=NC2=O)SN=C3S(=O)(=O)C(C)C)c(C)n1Cc1ccccc1
-1.7	6	O=C(COc1ncnc2ccccc12)N1CCCC1
nt	-12	COc1ccccc1OCc1nc(C#N)c(NCCCn2ccnc2)o1
nt	-6	CCOc1ccccc1C(=O)N1CCN(C(=O)c2ccccc2)CC1
nt	14	CCn1c(CCC(=O)O)nc2cc(S(N)(=O)=O)ccc21
0.9	2	C=CCNC(=O)COc1ccc(C(C)C)cc1
2.7	nt	Cc1cc(OC(=O)c2c(-c3c(Cl)cccc3Cl)noc2C)n(-c2ccc(NC(=O)c3c(-c4c(Cl)cccc4Cl)noc3C)cc2)n1
0.2	-11	COc1ccccc1-c1nc(N)n[nH]1
4.2	nt	O=C(/C=C/Sc1nc2cc(Cl)ccc2s1)c1ccc(F)cc1
-0.3	7	Nc1nc(C2CC(=O)OC23CCCCC3)cs1 (configuration not stated)
nt	23	O=C1CN(C(=O)c2ccc(Br)o2)C(c2ccccc2)c2cc(Cl)ccc2N1 (configuration not stated)
nt	7	O=C(Cn1ccc2ccccc2c1=O)NC1CCCCCC1
nt	4	N#CC1=C(SCC(=O)Nc2ccccc2)NC(=O)CC1c1cccc(Br)c1 (configuration not stated)
-0.6	6	CC(C)(C)CC(C)(C)NCc1ccccc1OCC(N)=O
nt	22	CC(=O)Nc1nnc(-c2ccccc2C)s1
-1.1	2	CCN(Cc1ccncc1)C(=O)C1CCCO1 (configuration not stated)
0.5	nt	O=C(O)CC1(CC(=O)Nc2ccc(N3CCCCC3)cc2)CCCCC1

(continued)
MgrA-DNA mod	Sa helicase inh	mol
4.7	-3	Cc1ccc(SCC(=O)NCc2ccco2)cc1
-0.1	8	CN(C(=O)/C=C\c1ccc2c(c1)OCO2)C(C(=O)Nc1ccc2c(c1)OCO2)c1ccccc1 (configuration not stated)
-1.1	-3	NC1=NC(=O)CC(C(=O)Nc2ccc(-c3ccccc3)cc2)S1 (configuration not stated)
nt	-119	O=c1nc2sc3[nH]c(=O)sc3cc-2s1
nt	-2	Cc1c(C(=O)/C=C/N(C)C)sc2ccccc12
nt	7	O=C(CCc1nc2cccnc2n1-c1ccccc1)NCc1ccc(CN2CCOCC2)o1
nt	11	Nc1nc(-c2ccccc2)c(C(=O)c2ccccc2)s1
-1.2	8	Cn1c(=O)cc(OCC(=O)N2CCCC2)c2ccccc21
-0.5	16	Cc1ccc(S(=O)(=O)N(C)CC(=O)Nc2ccccc2C(F)(F)F)cc1
-0.1	-10	COc1cc(OC)cc(C(=O)NCCOC23CC4CC(CC(C4)C2)C3)c1
1.0	5	CC(C)CNS(=O)(=O)c1ccccc1C(=O)N1CCCCC1
nt	10	O=C(COC(=O)c1c(-n2cccc2)sc2c1CCCC2)Nc1ccc(F)cc1
nt	-34	CN(Cc1ccccc1)C(=O)c1cc(-c2ccco2)[nH]n1
nt	3	O=C(Nc1nc2nc(-c3cccs3)cc(C(F)(F)F)c2s1)c1ccco1
0.7	nt	COc1ccc(NC(=O)C2CC(=O)N(Cc3ccccc3)C(=Nc3ccc(F)cc3)S2)cc1 (configuration not stated)
nt	-5	C=CCn1c(CSc2ccc(C)cc2)n[nH]c1=S
nt	-18	C(=N\OCc1nnc(-c2ccc3ccccc3c2)o1)/c1cccc2c1OCO2
0.2	nt	COC(=O)c1cnc(Cl)cc1Cl

Not all compounds are listed, so the mix of outcomes need not match the whole.
